Bioassay records: PubChem BioAssay, Fisher Drug Discovery Resource Center
NPYLR7 ag – activates Aedes aegypti NPYLR7 receptor; 270,000 compounds, 0.15% hits; HEK293T NPYLR7/Galpha15, GCaMP6s calcium fluorescence; activation, % at 10 µM; in the data active = activation above about 40%;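 also: 0% = vehicle and 100% = reference agonist at the receptor; some compounds past the cut are filed as inactive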
NPYLR7 ag max-min – further read-out of NPYLR7 ag, marked with its call; activation, %; measured here: Max-Min RFU normalised activation; some inactives read as strong as hits;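 span of the calcium signal over five minutes; 0% = vehicle and 100% = native peptide agonist; compound fluorescence can raise it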
An asterisk follows results filed as active. This is a subset (hit frequency here may not be typical).

item | Compound | NPYLR7 ag | NPYLR7 ag max-min
1 | COc1ccc(C2=NN(C(=O)CN3CCCC3)C(c3ccc(C)cc3)C2)c(OC)c1 (stereo not drawn) | -1 | -1
2 | CCOc1ccc2oc(C(=O)OCC(=O)N3C(C)CCCC3C)c(C)c2c1 (stereo not drawn) | 4 | 0
3 | CCOc1ccc(-c2cc3c(=O)n(CC(=O)Nc4ccc5c(c4)OCCO5)ncn3n2)cc1 | 17 | 10
4 | CN=c1scc(-c2ccc(F)cc2)n1N=Cc1ccc(Br)cc1 | -2 | -5
5 | COCCCN(CC(=O)N(CCc1c[nH]c2ccccc12)Cc1ccccc1)C(=O)c1ccc(Cl)cc1 | -4 | 8
6 | COc1cc(OC)cc(C2c3cccn3CCCN2Cc2ccoc2)c1 (stereo not drawn) | 12 | 21
7 | COc1ccc(S(=O)(=O)N2CCc3ccccc3C2)cc1N1CCN(C(=O)/C=C/c2ccccc2)CC1 | 27 | 29
8 | COc1cccc(-c2ncc(C3NCCc4[nH]cnc43)s2)c1 (stereo not drawn) | 7 | 6
9 | Cc1cc(C)cc(C(=O)Oc2coc(CSc3nccn3C)cc2=O)c1 | -2 | -7
10 | O=C(CSc1nnc2ccccn12)NCc1ccc2c(c1)OCO2 | 1 | -4
11 | COc1cccc(OCC2c3ccsc3CCN2C(=O)CN(C(=O)C2CC2)C2CC2)c1 (stereo not drawn) | -6 | -1
12 | CCCCN(C)C(=O)Cn1nc(CC)n2c(cc3occc32)c1=O | 1 | -2
13 | O=C1OC2C=CC=CC2C=C1C(=O)N1CCSC1c1ccc2c3c(cccc13)CC2 (stereo not drawn) | -1 | -5
14 | O=C(c1ccco1)N(Cc1nccn1Cc1cccc(C(F)(F)F)c1)CC1CC1 | 13 | 18
15 | CCC(C)NC(=O)CN1C(=O)NC2NC(=O)NC21 (stereo not drawn) | 4 | 2
16 | O=S(=O)(c1ccc2ccccc2c1)N1CCN(Cc2cccs2)CC1 | 14 | 5
17 | CCc1cn[nH]c1C1CCCN(C(=O)c2cc(CC(C)C)nn2CC)C1 (stereo not drawn) | -8 | -8
18 | Cc1c(N=Cc2cccs2)c(=O)n(-c2ccccc2)n1C | -6 | -9
19 | Cc1ccc(C2=NN(C(=O)CN3CCOCC3)C(c3ccccc3F)C2)c(C)c1 (stereo not drawn) | -9 | -8
20 | COC(=O)c1ccccc1NC(=O)c1c2c(nn1C1CCS(=O)(=O)C1)CCC2 (stereo not drawn) | 18 | 15
21 | C=C(Cl)C(=O)N1CCC(n2c(C(F)(F)F)nc3ccccc32)CC1 | 2 | 1
22 | Cc1ccc(F)cc1S(=O)(=O)NCCNc1cc(-n2cccn2)ncn1 | -10 | -14
23 | COc1cc(OC)cc(-c2onc(C)c2C(=O)NCc2cnc(C)cn2)c1 | -11 | -10
24 | CC(C)(C)OC(=O)N[C@@H](CC(=O)OC1CCCCC1)C(=O)N1CCC2(CC1)C(=O)NCN2c1ccccc1 | 42 | 22

Laid out differently: results already given.
Fields: NPYLR7 ag | NPYLR7 ag max-min
11	COc1cccc(OCC2c3ccsc3CCN2C(=O)CN(C(=O)C2CC2)C2CC2)c1 (stereo not drawn)
→ -6 | -1
12	CCCCN(C)C(=O)Cn1nc(CC)n2c(cc3occc32)c1=O
→ 1 | -2
13	O=C1OC2C=CC=CC2C=C1C(=O)N1CCSC1c1ccc2c3c(cccc13)CC2 (stereo not drawn)
→ -1 | -5
14	O=C(c1ccco1)N(Cc1nccn1Cc1cccc(C(F)(F)F)c1)CC1CC1
→ 13 | 18
15	CCC(C)NC(=O)CN1C(=O)NC2NC(=O)NC21 (stereo not drawn)
→ 4 | 2
16	O=S(=O)(c1ccc2ccccc2c1)N1CCN(Cc2cccs2)CC1
→ 14 | 5

Further results follow.
item | Compound | NPYLR7 ag | NPYLR7 ag max-min
25 | Nc1nc(Cl)cc(N2CCN(c3nc4cccnc4s3)CC2)n1 | 15 | 6
26 | Cc1c(C)n2c3c(=O)n(CC(=O)c4ccc(F)cc4)c(=O)n(C)c3nc2n1Cc1ccco1 | -4 | -3
27 | COc1cc(CNC(C)(C)CO)cc(Cl)c1OCC(N)=O | -6 | -9
28 | C=CCn1c(SCc2ccc(C(=O)N3CCN(CC)CC3)cc2)nnc1-c1ccccc1Cl | 29 | 32
29 | COc1ccccc1OCc1cc(C(=O)N[C@@H]2c3ccccc3C[C@@H]2O)n[nH]1 | 10 | 5
30 | Cc1ccc(CNC(=O)CCC2CCCN(C(=O)/C=C/c3ccccn3)C2)o1 (stereo not drawn) | 19 | 1
31 | CC(=O)Nc1ccc(NC(=O)CSc2nc(=O)n(CC3CCCO3)c3c2CCCC3)cc1 (stereo not drawn) | 3 | -2
32 | CCOC(=O)C1CCN(C(c2cc(OC)c(OC)c(OC)c2)C2Sc3ncnn3C2=O)CC1 (stereo not drawn) | 4 | 3
33 | CCOc1ccc(-c2cc(C3CC3)c(C#N)c(C(C#N)C#N)n2)c(OCC)c1 | -3 | -4
34 | CN(Cc1nccn1Cc1ccccc1)C(=O)c1ccc(NC(=O)C2CCC2)cc1 | 5 | 2
35 | CCC(C)N(CC(=O)N(CCc1ccccc1)Cc1ccc(C)o1)C(=O)c1ccc(C)cc1 (stereo not drawn) | 0 | 10
36 | CCc1nc(C)c(C(=O)NC(C)CCc2ccco2)o1 (stereo not drawn) | -5 | 1

By substructure: the compounds so far containing a thiophene ring, fused or not.
item | Compound | NPYLR7 ag | NPYLR7 ag max-min
11 | COc1cccc(OCC2c3ccsc3CCN2C(=O)CN(C(=O)C2CC2)C2CC2)c1 (stereo not drawn) | -6 | -1
16 | O=S(=O)(c1ccc2ccccc2c1)N1CCN(Cc2cccs2)CC1 | 14 | 5
18 | Cc1c(N=Cc2cccs2)c(=O)n(-c2ccccc2)n1C | -6 | -9

(more compounds)
item | Compound | NPYLR7 ag | NPYLR7 ag max-min
37 | CCCNC(=O)Cn1c(=O)c2c(OC)c(C)cnc2n(C)c1=O | 4 | 3
38 | COc1cc(=O)n(-c2ccc(F)cc2)nc1C(=O)N(Cc1ccccc1)Cc1ccccc1 | 4 | -3
39 | Cc1ccsc1[C@@H]1CCN(C(=O)CCC(=O)c2ccccc2)C[C@H]1O | 3 | -1
40 | N#Cc1ccc(/C=C(/Cl)c2nc(-c3ccsc3)no2)cc1 | 4 | -2
41 | Cc1c(C2CC(=O)Nc3[nH]ncc32)[nH]c2ccc(F)cc12 (stereo not drawn) | -8 | -13
42 | CN(C)c1ccc(NC(=O)C2CCC2)cc1CN(Cc1ccco1)C(=O)NC(C)(C)C | -3 | 11
43 | COc1coc(CN2CCOC(Cc3ccccc3)C2)cc1=O (stereo not drawn) | 3 | 1
44 | Cc1ccc(-c2nc(N3CCN(C(=O)Nc4ccc(C(C)C)cc4)CC3)c3ccccc3n2)cc1 | 21 | 20
45 | Cc1ccc(C(=O)CSc2nc(=O)[nH]c3c2CCCC3)cc1 | 0 | -4
46 | COc1ccc(C2CC(c3ccc(Cl)cc3)=Nc3nnnn32)cc1 (stereo not drawn) | 8 | 9
47 | Cc1cc(NC(=O)CN2C(=O)NC(C(C)C)C2=O)no1 (stereo not drawn) | 6 | 3
48 | Cc1cc(NC(=O)C(F)(F)C2(F)OC(F)(F)C(F)(F)C2(F)F)no1 (stereo not drawn) | 1 | -3

Values by screen from above.
NPYLR7 ag max-min for nos. 41–46, in order: -13, 11, 1, 20, -4, 9
NPYLR7 ag for nos. 41–46, in order: -8, -3, 3, 21, 0, 8

Next part
item | Compound | NPYLR7 ag | NPYLR7 ag max-min
49 | O=C(NC1CCN(c2ccccc2C(=O)NCc2ccc(F)cc2)CC1)c1ccc(Br)cc1 | -1 | 12
50 | CC(C)n1c(CN(C)Cc2ccccc2)nc2c1c(=O)n(C)c(=O)n2C | 4 | 2
51 | CC1CCCCN1CC1CCCN(CCCCCO)C1 (stereo not drawn) | 7 | 3
52 | CCc1ccccc1-n1c(SCCN2C(=O)CNC2=O)nc2ccccc2c1=O | -5 | -7
53 | CC1(C)OCC(C2OC(Nc3cccc(CC(=O)NC4CCOC4=O)c3)[C@H]3OC(C)(C)O[C@@H]23)O1 (stereo partly drawn) | -6 | -12
54 | Cc1cc(C(=O)N(Cc2cccnc2)c2nc3c(C)c(C)ccc3s2)on1 | 7 | 7
55 | O=C(CCC1CCN(C(=O)C2CC=CCC2)CC1)NCc1cccc(C(F)(F)F)c1 (stereo not drawn) | 8 | 5
56 | O=C(NCc1nc(-c2ccccc2)no1)c1csc(-c2cc3ccccc3[nH]2)n1 | -1 | -2
57 | Cc1nc(CSCC(=O)Nc2nc3cc(Cl)ccc3n2C)no1 | -4 | -6
58 | CCOc1coc(C(=O)Nc2cccc(NC(C)=O)c2)cc1=O | 10 | 2
59 | COc1ccc(CCNC(=O)c2cc(Cl)ccc2NS(=O)(=O)c2cc(OC)ccc2OC)cc1 | 1 | -1
60 | Cc1ccc(NC(=O)C=Cc2cc(C)n(Cc3ccco3)c2C)c(F)c1 | -3 | -1
61 | CCOC(=O)[C@@H]1CSC2(CCN(C(=O)/C=C/c3ccc(C)cc3)CC2)N1 | -1 | 33
62 | C=C(C)Cn1c(SCC(=O)OCC)nc2c1c(=O)n(C)c(=O)n2C | 0 | -1
63 | O=C(Cc1ccc(F)cc1)Nc1c(-c2ccc(F)cc2)nc2ccccn12 | -4 | -3
64 | N#CCc1ccc(NC(=O)CNc2ccc(F)cc2Cl)cc1 | 6 | 4
65 | Cc1nc(NCC(c2ccccc2)N2CCCCCC2)c2cnn(C)c2n1 (stereo not drawn) | 3 | 1
66 | CNc1nc(C(=O)N2CCC(c3[nH]ncc3-c3cccc(C)c3)CC2)cs1 | 27 | 15
67 | Cc1cc2nc(-c3cccs3)cc(C(=O)NCCc3cccc(C(F)(F)F)c3)c2cc1C | 7 | 5
68 | CCOC(=O)C1CCCN(C(=O)c2csc(COc3cccc(F)c3)n2)C1 (stereo not drawn) | 24 | 20
69 | CCCNc1nnc(SCC(=O)N2CCc3ccccc32)s1 | 16 | 9
70 | O=C(CSc1nccn(-c2ccc(Br)cc2)c1=O)NCCc1ccccc1 | 0 | 7
71 | CN1CCN([C@@H]2CCN(c3nccc(N)n3)C[C@H]2O)CC1 | -3 | -5
72 | COc1ccc(C2COC(=O)C2=N)c(N)c1 (stereo not drawn) | 13 | 7
73 | CN(Cc1ccc[nH]1)C(=O)c1cc(S(=O)(=O)NC2CC2)ccc1Br | 5 | 3
74 | CC(C)CC(C(=O)O)N1C(=O)C2C3CC(C(Br)C3Br)C2C1=O (stereo not drawn) | 10 | 5
75 | O=C1NC(CCCc2ccccc2)(C2CCNCC2)C(=O)N1Cc1cccnc1 (stereo not drawn) | -1 | -7
76 | COCCN(Cc1ccccc1)Cc1ccc(F)cc1 | 9 | 8
77 | CN1C(=O)COCc2cc(-c3cccnc3)ccc21 | 6 | 3
78 | CCOC(OCC)c1ccc(C(=O)C2OC2c2ccc(Cl)cc2)o1 (stereo not drawn) | 3 | 12
79 | CCOc1c(C)cnc2c1c(=O)n(CC(=O)NC)c(=O)n2C | 5 | 3
80 | COc1ccc(NC(=O)C2CC(=O)N(C)C(=Nc3ccccc3OC)S2)cc1 (stereo not drawn) | 0 | -2
81 | Cc1ccc(C(C2Sc3ncnn3C2=O)N2CC(C)CC(C)C2)cc1 (stereo not drawn) | 1 | 0
82 | CC(C)COc1ccc(CC(N)=Nn2cnnc2)cc1 | 0 | -1
83 | Cn1c(SCc2nccc(N)n2)nc2ccccc2c1=O | 13 | 7
84 | O=C(CCCn1cncn1)N1CCOC(c2ccc(Cl)c(Cl)c2)C1 (stereo not drawn) | -4 | -9
85 | CN1N=C(C(=O)Nc2ccc(-n3ncc4c(=O)[nH]cnc43)cc2)CCC1=O | 10 | 6
86 | Fc1ccc(Oc2cc(N3CCC(Cc4ccccc4)CC3)ncn2)c(F)c1 | 4 | 13
87 | CC1=NC2=C(C(=O)CC(c3ccccc3)C2)C(c2cccc(O)c2)C1C(=O)OC1CCCC1 (stereo not drawn) | 0 | 1
88 | COc1ccc(CN(CCN2CCOCC2)CC(O)COCc2ccccc2)cc1OC (stereo not drawn) | -5 | -13
89 | COC(=O)C1CCN(c2ncnc3[nH]ncc23)CC1 | 10 | 10
90 | COc1cccc2c1OCC(CN(C)CC1CCN(Cc3ccc(C)o3)CC1)=C2 | 15 | 12
91 | CCCCN(C=O)c1c(CC)nc2ccc(C(=O)NCCc3ccccn3)cn12 | 4 | -6
92 | COc1cc(C)ccc1OCc1cc(C(=O)N(C)Cc2ncc(C)[nH]2)no1 | 13 | 10
93 | CC(=O)Nc1ccc(SCC(O)COc2ccccc2)cc1 (stereo not drawn) | 6 | 4
